# From PubChem BioAssay
# RGS16-Gao HTS – modulates binding between human RGS16 and Galphao; O15492+P09471; bead-based flow cytometry RGS16-Galphao binding, fluorescence; actives lie on both sides; binding response (% of control), % at 10 µM; hit rate 0.38% among 220,000;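 active = below 25% or above 175%, edge rows of some plates excepted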;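 note: Galphao activated by GDP with aluminum fluoride before binding; 100% = wells without compound and 0% = beads without RGS; some results beyond the cut were filed as inactive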
# Target sequence (O15492 whole entry, looked up): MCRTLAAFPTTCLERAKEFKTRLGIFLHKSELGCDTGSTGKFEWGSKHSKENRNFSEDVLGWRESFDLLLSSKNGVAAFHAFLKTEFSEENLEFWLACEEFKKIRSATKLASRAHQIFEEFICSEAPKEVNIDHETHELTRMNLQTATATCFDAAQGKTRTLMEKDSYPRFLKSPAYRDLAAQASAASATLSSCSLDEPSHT
# Target sequence (P09471 whole entry, looked up): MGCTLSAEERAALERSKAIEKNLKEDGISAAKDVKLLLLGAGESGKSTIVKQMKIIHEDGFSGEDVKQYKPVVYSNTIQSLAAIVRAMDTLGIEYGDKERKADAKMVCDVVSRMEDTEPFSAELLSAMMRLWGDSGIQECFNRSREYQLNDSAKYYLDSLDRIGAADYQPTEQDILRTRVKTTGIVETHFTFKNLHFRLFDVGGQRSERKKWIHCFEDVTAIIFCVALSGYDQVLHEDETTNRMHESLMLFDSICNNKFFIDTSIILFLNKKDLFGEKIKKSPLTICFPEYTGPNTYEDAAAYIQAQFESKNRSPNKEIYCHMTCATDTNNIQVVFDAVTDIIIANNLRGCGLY
# GALR2 ag – activates the human galanin receptor 2; GALR2-expressing cells, agonist activation read-out; hit rate 0.48% among 140,000; activation, %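 (tested at 5 µM)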; AID 803;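 active = above mean plus 3 SD of all compounds, about 5% in these data, not always enough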;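 note: 0% = vehicle buffer wells and 100% = reference agonist at full effect; tested in CHO reporter cells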
# Target sequence (O43603 whole entry, looked up): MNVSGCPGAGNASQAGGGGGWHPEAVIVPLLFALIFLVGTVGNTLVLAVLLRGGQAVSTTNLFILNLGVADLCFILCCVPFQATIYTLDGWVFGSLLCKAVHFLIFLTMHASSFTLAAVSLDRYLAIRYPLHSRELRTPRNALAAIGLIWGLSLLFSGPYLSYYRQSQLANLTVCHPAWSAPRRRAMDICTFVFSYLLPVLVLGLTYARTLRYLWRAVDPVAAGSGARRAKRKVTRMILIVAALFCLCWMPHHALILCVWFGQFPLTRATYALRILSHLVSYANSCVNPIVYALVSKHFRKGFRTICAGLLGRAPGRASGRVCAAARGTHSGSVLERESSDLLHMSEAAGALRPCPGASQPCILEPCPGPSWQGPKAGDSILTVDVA
# PKD1 kinase inh – blocks activity of human protein kinase D1. Q15139. PKD1 kinase fluorescence polarization assay. inhibition, %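 (about 10 µM by stock and volumes)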. hit rate 0.056% among 200,000. AID 797;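 active = inhibition of 50% or more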;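 note: controls were vehicle for no effect and a reference inhibitor for full effect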
# HSV replic up – increases HSV replication in cells. hit rate 0.005% among 220,000. HSV replication augmentation in cells, fold increase. AID 1956. maximum fold increase;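 active = peak rise of 1.5-fold or more in the series; tested in PC3 cells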;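 note: first round at 10 µM; read as green reporter fluorescence; hits show the peak of a series up to 25 µM; 1 = signal of infected wells without compound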
# Insulin prom inh – TRM-6 insulin promoter activity inhibition; TRM-6 cells (human fetal islet line), insulin promoter-eGFP reporter, imaging; reporter expression induced with tamoxifen; hit rate 0.9% among 130,000; AID 1273; inhibition, % at 2 µM;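 active = inhibition above the mean plus 3 SD, with well images judged a real hit on visual review, cut at about 60% in these data, passing the limit was not always enough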
# Insulin prom inh cell count – further read-out of Insulin prom inh, marked with its call; normalized cell count, %; measured here: cell count, toxicity; reference of the scale not given here;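 cells exposed to compound for 48 h; stained nuclei by imaging scaled within each plate; lower means fewer cells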
# HSV replic up primary fold – recorded beside HSV replic up, whose call it bears; fold increase; compound at 10 µM; measured here: primary screen fold increase 10 uM; tested in PC3 cells;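 GFP signal in the first replicate; 1 = infected wells without compound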
# The depositor's hits bear a star; i = inactive; . = not tested or not shown.
# Values run as follows: RGS16-Gao HTS, GALR2 ag, PKD1 kinase inh, HSV replic up, HSV replic up primary fold, Insulin prom inh, Insulin prom inh cell count
- CCS(=O)(=O)NCCc1cc2ccc(C)cc2[nH]c1=O
    98.3, -0.8, -4.5, i, 0.99, 36.4, 52.6
- Cc1cccc(-c2nnnn2-c2cccc(C)c2)c1
    100.8, ., -6.3, i, 1.03, 17.1, 135.2
- CNC(=S)N1CCc2sccc2C1C (stereo not drawn)
    104.9, ., ., i, 1.08, ., .
- CCc1ccc2oc(=O)cc(CN3CCCCC3C)c2c1 (stereo not drawn)
    99.5, 0.1, 4.0, i, 1.3, -20.0, 112.1
- CCOC(=O)C1=C(C)N(C)C(C)=C(C(=O)OCC)C1c1ccncc1
    86.4, -1.9, 3.1, i, 1.04, -204.6, 56.2
- CN(c1ccccc1C(=O)Nc1ccc(F)c(Cl)c1)S(C)(=O)=O
    100.6, ., -5.4, i, 0.97, ., .
- N#CCSc1nnc(C2CCCCC2)n1Cc1ccccc1
    104.1, -1.1, -8.4, i, 0.8, ., .
- O=C(CCC(=O)CCN1CCCCC1)CCN1CCCCC1
    105.5, -2.0, -3.9, i, 1.2, ., .
- Cc1cccc(-n2ncc3c(NCc4ccccc4)ncnc32)c1
    99.9, -0.5, -9.0, i, 0.55, ., .
- Cn1ccnc1SCC(=O)Nc1ccc2c(c1)OCO2
    106.3, ., 2.2, i, 0.98, -74.4, 28.3
- Cc1sc2c(c1C)c(=O)nc1scc(C)n12
    ., -0.7, -0.8, ., ., -71.4, 152.2
- COc1ccc(S(=O)(=O)N2CCOCC2)cc1C(C)C
    95.2, -0.1, -6.4, i, 1.52, -207.0, 78.9
- CC(=O)c1cccc(NS(=O)(=O)c2c(C)noc2C)c1
    103.0, -1.4, -9.0, ., ., ., .
- CC(=O)c1ccc(NC(=O)c2cc(CC(C)C)on2)cc1
    101.2, -1.1, -7.9, i, 0.92, ., .
- O=C(O)c1cc(-c2ccc(Cl)cc2)n(-c2ccc(Cl)cc2)n1
    107.9, ., 0.6, ., ., 42.9, 107.4
- C=CCNC(=O)CN1C2CCCC1CC(NC(=O)c1ccccc1C)C2 (stereo not drawn)
    99.6, -0.7, -2.3, i, 1.1, ., .
- CCn1cnc2sc(C(=O)Nc3ccc4c(c3)OCO4)c(C)c2c1=O
    101.8, -0.8, -5.2, i, 0.96, 62.5, 186.2
- CC1CCCCN1C(=O)CNCC1CCCO1 (stereo not drawn)
    103.0, ., 8.6, i, 1.03, -7.7, 98.0
- CCN(CC)S(=O)(=O)c1ccc(N/N=C/c2cccnc2)nc1
    99.8, ., ., i, 0.89, ., .
- Cc1ccc(C)c(N/C=C(\C#N)c2nc3ccccc3o2)c1
    ., -2.8, -7.3, i, 0.93, -30.8, 85.1
- CCCOc1ccc(/C(O)=C2/C(=O)C(=O)N(CCCn3ccnc3)C2c2ccco2)cc1 (stereo not drawn)
    98.9, -2.1, -2.8, i, 1, 8.3, 95.3
- Cc1noc(NS(=O)(=O)c2ccc(NC(=O)C34CC5CC(C3)CC(n3cnc(Br)n3)(C5)C4)cc2)c1C
    97.9, 0.3, -8.8, i, 0.89, 40.0, 102.5
- CCOC(=O)c1ccc(Nc2nnc(C)c3ccccc23)cc1
    103.9, ., ., i, 0.74, ., .
- COc1ccc(S(=O)(=O)N2CCC3(CC2)OCCO3)cc1
    101.2, ., 3.5, i, 0.91, 33.3, 107.9
- CCC1=[N+](CC(=O)c2ccc(C)cc2)CCn2cccc21
    102.5, ., 1.2, i, 1.03, ., .
- Cc1ccc2nc(C)c(C(=O)NN=C3CCN(C)CC3)n2c1
    105.5, ., -6.4, i, 0.8, -26.3, 43.8
- COc1cc(-c2noc(CCCC(=O)NC3CCCCC3)n2)cc(OC)c1OC
    101.4, 25.9*, -4.0, i, 1.04, 45.8, 52.5
- CC12CC(NC(=O)N1c1cccc(C(=O)NCc3ccc4c(c3)OCO4)c1)c1cc(Cl)ccc1O2 (stereo not drawn)
    96.6, -1.0, -2.1, i, 1.11, -28.6, 54.2
- Cn1c(SCC(=O)N2CCN(Cc3ccccc3)CC2)nnc1-c1ccncc1
    100.6, -1.8, -1.6, i, 0.96, 15.4, 81.8
- Cc1nn(C)cc1/C=N/NC(=O)c1sc2ccccc2c1Cl
    99.6, -1.1, 2.5, i, 0.93, 1.7, 93.6
- c1ccc2[nH]c(CN3CCCCCC3)nc2c1
    114.9, -0.4, 0.1, i, 1.58, -7.0, 130.7
- COC(=O)c1sccc1-n1cccc1C(=O)C(=O)N1CCCCC1
    97.6, -1.0, -6.2, i, 0.94, ., .
- CON1C(=O)CN(C(C)=O)C1c1ccc(Cl)cc1Cl (stereo not drawn)
    97.5, -3.1, -0.9, ., ., 3.6, 90.6
- O=C(Nc1ccc2c(c1)CCC2)c1ccc(F)cc1
    101.4, -1.6, 0.1, i, 1.08, ., .
- COc1ccc(-n2c(C)nc3c(cnn3-c3ccc(C)c(C)c3)c2=O)cc1
    101.9, -1.9, -13.2, i, 0.72, ., .
- c1ccc2[nH]c(SCCN3CCOCC3)nc2c1
    104.7, -1.1, 3.8, i, 0.82, -30.3, 145.3
- COc1ccc2cnn(-c3ccc(OC(F)(F)F)cc3)c(=O)c2c1OC
    92.1, ., ., i, 0.87, ., .
- COc1cc(/C=C2/SC(=O)N(Cc3ccccc3)C2=O)ccc1OCc1ccncc1
    103.4, -0.3, -5.9, i, 0.93, 13.0, 96.5
- Cn1c(=O)c2cc3ccc(Cl)cc3nc2n(C)c1=O
    102.3, ., ., i, 1.03, ., .
- O=C(NC(=O)c1cccc(OC(F)(F)C(F)F)c1)OC1CCS(=O)(=O)C1 (stereo not drawn)
    98.4, 5.7*, -12.9, i, 0.82, 12.9, 73.5

# Sorted by molecular weight (highest first): part of the list above
# Values run as follows: RGS16-Gao HTS, GALR2 ag, PKD1 kinase inh, HSV replic up, HSV replic up primary fold, Insulin prom inh, Insulin prom inh cell count
- COc1cc(/C=C2/SC(=O)N(Cc3ccccc3)C2=O)ccc1OCc1ccncc1
    103.4, -0.3, -5.9, i, 0.93, 13.0, 96.5
- Cn1c(SCC(=O)N2CCN(Cc3ccccc3)CC2)nnc1-c1ccncc1
    100.6, -1.8, -1.6, i, 0.96, 15.4, 81.8
- CN(c1ccccc1C(=O)Nc1ccc(F)c(Cl)c1)S(C)(=O)=O
    100.6, ., -5.4, i, 0.97, ., .
- C=CCNC(=O)CN1C2CCCC1CC(NC(=O)c1ccccc1C)C2 (stereo not drawn)
    99.6, -0.7, -2.3, i, 1.1, ., .
- COC(=O)c1sccc1-n1cccc1C(=O)C(=O)N1CCCCC1
    97.6, -1.0, -6.2, i, 0.94, ., .
- CCN(CC)S(=O)(=O)c1ccc(N/N=C/c2cccnc2)nc1
    99.8, ., ., i, 0.89, ., .
- O=C(CCC(=O)CCN1CCCCC1)CCN1CCCCC1
    105.5, -2.0, -3.9, i, 1.2, ., .
- Cc1ccc(C)c(N/C=C(\C#N)c2nc3ccccc3o2)c1
    ., -2.8, -7.3, i, 0.93, -30.8, 85.1
- CC(=O)c1ccc(NC(=O)c2cc(CC(C)C)on2)cc1
    101.2, -1.1, -7.9, i, 0.92, ., .
- Cn1c(=O)c2cc3ccc(Cl)cc3nc2n(C)c1=O
    102.3, ., ., i, 1.03, ., .
- c1ccc2[nH]c(SCCN3CCOCC3)nc2c1
    104.7, -1.1, 3.8, i, 0.82, -30.3, 145.3
- Cc1sc2c(c1C)c(=O)nc1scc(C)n12
    ., -0.7, -0.8, ., ., -71.4, 152.2

# Next section.
# Values run as follows: RGS16-Gao HTS, GALR2 ag, PKD1 kinase inh, HSV replic up, HSV replic up primary fold, Insulin prom inh, Insulin prom inh cell count
- O=C(CSc1ccc2nnc(-c3ccncc3)n2n1)NCC1CCCO1 (stereo not drawn)
    102.9, ., -10.1, ., ., ., .
- CC(C)n1cnnc1SCC(=O)Nc1cccc(S(=O)(=O)N(C)c2ccccc2)c1
    94.1, ., ., i, 0.96, ., .
- O=C(Nc1cccc2ccccc12)c1nn(C23CC4CC(CC(C4)C2)C3)cc1[N+](=O)[O-]
    95.4, -2.7, -7.8, i, 0.82, ., .
- COc1cc(C2NCCC(=O)C2(C)C)cc(OC)c1OC (stereo not drawn)
    86.2, -0.9, 1.6, i, 0.97, ., .
- CCOc1ccc(-n2c(C)cc(C(=O)CCl)c2C)cc1
    98.9, ., 5.8, i, 0.95, ., .
- CCC(=O)N(Cc1cc2cc(OC)ccc2[nH]c1=O)c1cccc(C)c1
    97.9, -1.0, -1.5, i, 0.88, -18.2, 160.2
- Cc1ccc(C(=O)NCC2(c3ccccc3)CCCC2)cc1
    87.5, -0.6, 1.3, i, 0.97, 20.0, 141.3
- O=c1[nH]c(=O)c2nc3c4ccccc4c4ccccc4c3nc2[nH]1
    101.8, ., -3.1, i, 0.84, ., .
- CC(C)(C)C1(O)CC(C(F)(F)F)=NN1C(=O)CCc1ccccc1 (stereo not drawn)
    106.5, ., -1.7, i, 1.03, ., .
- CSc1nsc(SC)c1C(=O)Nc1ccc(C(C)(C)C)cc1
    101.8, ., ., i, 0.86, ., .
- CN(C)C(=O)CSc1nnc(CCCCCNC(=O)OC(C)(C)C)o1
    100.9, -0.6, 2.9, i, 0.96, ., .
- O=S(=O)(Nc1cccc(CCc2ccccn2)c1)c1ccc(Cl)cc1
    105.3, ., ., i, 1.06, ., .
- COc1ccc(S(=O)(=O)Nc2ccc(F)c(Cl)c2)cc1OC
    85.5, -1.4, -3.4, i, 0.98, 0.0, 67.1
- CCOC(=O)c1cccc(N2C(=O)C3C(C2=O)C2C=CC3C23CC3)c1 (stereo not drawn)
    94.9, -2.6, -2.2, i, 0.94, -19.4, 116.5
- O=C(C(Cc1ccc(Cl)cc1)NS(=O)(=O)c1ccccc1)N1CC[C@@]2(O)CCCC[C@H]2C1 (stereo partly drawn)
    101.2, -0.2, -4.2, i, 1.01, -23.7, 91.4
- O=C(COc1ccccc1Cl)c1ccc2c(c1)CCCC2
    98.3, -3.0, 1.6, ., ., -61.5, 85.0
- Cc1cc(C)c(C)c(OCC(=O)NCC2CCCO2)c1 (stereo not drawn)
    99.6, -0.1, -4.7, i, 0.99, -13.9, 57.1
- COC(=O)[C@H](CCSC)NC(=O)NCCC1=CCCCC1
    101.2, -0.8, -7.4, i, 1, -50.0, 58.0
- CCN1CCN(C(C(=O)NC2CCCC2)c2ccc(Cl)cc2)CC1 (stereo not drawn)
    109.3, ., -7.7, i, 0.86, ., .
- CCCCn1nnc(NC(=S)NC(=O)c2ccc(-c3cccc(Cl)c3Cl)o2)n1
    98.1, 0.1, 4.4, i, 1.27, ., .
- Cc1cc(NC(=O)CSc2nnc(C3COc4ccccc4O3)o2)no1 (stereo not drawn)
    102.3, 0.2, -1.9, i, 0.77, -39.5, 134.6
- Cc1nonc1C(=O)N/N=C/c1ccc(O)cc1O
    78.2, ., -3.1, i, 0.83, 18.5, 102.2
- CC1CCCN(C(=O)c2ccncc2)C1 (stereo not drawn)
    113.7, -0.7, -4.9, i, 0.95, 24.3, 105.3
- CCC(=O)NC(C)C(c1cccs1)N1CCN(c2ccccc2)CC1 (stereo not drawn)
    113.1, -1.3, 5.2, i, 0.93, 0.0, 78.4
- COc1ccc(/C(O)=C2/C(=O)C(=O)N(CCCC(=O)O)C2c2ccc(OC)cc2)cc1 (stereo not drawn)
    96.5, 0.1, -4.9, ., ., -38.5, 100.0
- Nc1nc(Nc2ccc(Cl)cc2)nc2ccccc12
    103.8, -2.1, 1.4, i, 0.8, 65.2, 93.4
- CN=CC1=C(O)c2ccccc2C1=O
    102.5, 0.3, -2.6, i, 0.84, -72.7, 96.2
- CC(C)=C1C2CCC1C1C(=O)N(c3nc(-c4ccccc4)c(C)s3)C(=O)C21 (stereo not drawn)
    89.2, -1.4, -7.2, i, 1.01, ., .
- C=CCOc1cccc(CNc2cccc(C(=O)O)c2)c1
    97.0, ., ., i, 1.03, ., .
- COC(=O)c1c(NC(=O)CSc2nnc(-c3ccco3)n2C)sc(C)c1C
    92.8, -2.3, 0.9, i, 0.83, -65.5, 93.3
- COc1ccc(-c2nn(-c3ccccc3C)cc2CNC(C)Cn2cncn2)cc1F (stereo not drawn)
    100.5, ., 0.3, i, 0.97, ., .
- CC1N(O)C(c2ccc(Cl)cc2Cl)N(O)C1(C)C (stereo not drawn)
    115.2, -1.6, -2.5, i, 0.97, -77.8, 32.6
- CCCCNC(=S)N1CCn2cccc2C1c1ccccc1 (stereo not drawn)
    104.6, ., -3.9, i, 0.99, 0.0, 112.9
